Vif TR-FRET – inhibitors of Vif binding to APOBEC3G peptide, primary screen, biochemical, TR-FRET, GST-Vif 1-94, biotin-A3G peptide, dose response retest (AID 1117319); actives 0.57% (n = 260,000); TR-FRET GST-Vif / biotin-A3G peptide binding; higher % means a stronger effect; test concentration not given here; strong numbers were not always called active; inhibition, %; hits with a dose series show IC50 in µM; Virion infectivity factor (Human immunodeficiency virus type 1 group M subtype B (isolate …;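 active means above the screen mean plus three standard deviations and confirmed in dose response; inconclusive means results disagree or hit not tested in dose response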;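 further: Vif residues 1-94 fused to GST binding biotinylated APOBEC3G peptide 110-148; 0% = full assay without inhibitor and 100% = GST in place of GST-Vif; retest series ran down from 100 µM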
AF4-AF9 inh – inhibitors of AF4 peptide binding to AF9, primary screen, biochemical, AlphaScreen, biotin-AF4 peptide, FLAG-AF9, single point; Protein AF-9 (Homo sapiens), P42568; inhibition, % at 10 µM; actives 0.47% (n = 350,000); AID 651704, 2012;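 active means every replicate reaching a set inhibition limit, whatever the replicate mean, cut at about 25% in these data; inconclusive means mean inhibition reaches that limit but some replicates miss it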;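 further: 0% = plate neutral control median and 100% = total signal loss; the record names both 10 and 1 µM as test concentration; the first replicate is given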
Target sequence (P42568 whole entry, looked up): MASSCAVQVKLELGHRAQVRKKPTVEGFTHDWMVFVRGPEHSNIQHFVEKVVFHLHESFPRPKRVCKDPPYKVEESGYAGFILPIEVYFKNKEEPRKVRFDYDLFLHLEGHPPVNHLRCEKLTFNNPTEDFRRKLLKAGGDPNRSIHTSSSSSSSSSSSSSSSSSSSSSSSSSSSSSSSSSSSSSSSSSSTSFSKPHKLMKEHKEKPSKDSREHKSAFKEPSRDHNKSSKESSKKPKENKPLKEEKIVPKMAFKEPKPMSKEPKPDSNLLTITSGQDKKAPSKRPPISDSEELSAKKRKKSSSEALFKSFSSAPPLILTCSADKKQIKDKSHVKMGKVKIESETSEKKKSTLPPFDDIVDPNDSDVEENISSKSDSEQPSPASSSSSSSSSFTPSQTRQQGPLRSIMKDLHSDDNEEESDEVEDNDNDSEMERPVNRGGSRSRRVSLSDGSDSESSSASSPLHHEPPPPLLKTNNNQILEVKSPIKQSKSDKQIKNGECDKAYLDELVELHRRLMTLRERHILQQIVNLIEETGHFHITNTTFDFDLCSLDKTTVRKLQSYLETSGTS
Ecoli rRNA inh – reduced GFP signal of wild-type E. coli, primary screen, bacterial rRNA inhibitor project, GFP/RFP fluorescence, OD600, single point; E. coli WT GFP vs humanized-ribosome RFP mutants, 24 h; hits give low values; DMSO median 0, no signal -100; GFP signal change (wild-type ribosome), % (no concentration beside the values); actives 1.6% (n = 350,000);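 active means significant combined selectivity score with lowered wild-type GFP, culture density cut under 30%, mutant RFP and density less affected; inactive means any of these conditions unmet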; further: one replicate is shown; some compounds called inactive have numbers as strong as hits
FGF22 binding – binders of human FGF22 protein, primary screen, FGF22 synaptogenesis inhibitor project, biophysical, thermal shift, single point. Fibroblast growth factor 22 (Homo sapiens), Q9HCT0. recombinant FGF22 thermal shift, SYPRO orange fluorescence; percent of sucrose octasulfate shift, DMSO zero. calls only at 9.99 µM. actives 1.5% (n = 340,000). AID 651658, 2012;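 active means melting point raised past a set limit in the mean and every replicate; inconclusive means no clear call; three in four hits are not shown here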
Target sequence (Q9HCT0 whole entry, looked up): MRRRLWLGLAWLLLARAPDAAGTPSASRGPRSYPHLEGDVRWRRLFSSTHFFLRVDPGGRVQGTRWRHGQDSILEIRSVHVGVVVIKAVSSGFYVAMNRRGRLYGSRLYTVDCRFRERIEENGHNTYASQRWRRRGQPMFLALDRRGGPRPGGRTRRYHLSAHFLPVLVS
ALR inh – inhibitors of human ALR sulfhydryl oxidase, primary screen, biochemical, H2O2 detection, HRP-luminol luminescence, single point | actives 3.8% (n = 290,000) | inhibition, % (test concentration not listed) | FAD-linked sulfhydryl oxidase ALR (Homo sapiens), P55789 | purified ALR, DTT oxidation;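 active means mean and each replicate at 75% or more; inconclusive means only one of the two met; inactive means neither met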;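 further: stock transfer was 7.5 nL into about 7.5 µL; 0% = neutral wells and 100% = wells with inactivated enzyme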
Target sequence (P55789 whole entry, looked up): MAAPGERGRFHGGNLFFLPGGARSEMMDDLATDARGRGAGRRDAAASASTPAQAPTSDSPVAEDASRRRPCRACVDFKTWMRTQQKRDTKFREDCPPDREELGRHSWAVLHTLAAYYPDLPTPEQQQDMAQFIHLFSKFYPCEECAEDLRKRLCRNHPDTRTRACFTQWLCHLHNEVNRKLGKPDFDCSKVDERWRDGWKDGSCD
Ecoli growth – E. coli growth inhibition, primary screen, OD600; Escherichia coli growth, 23 h; hits give low values; OD600 absorbance (concentration not given with the values); actives 0.21% (n = 330,000);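 active means OD600 absorbance below the run mean of sample wells minus 3.6 SD, in any replicate, cut at about 0.56 in these data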;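 further: stock transfer was 300 nL into about 60 µL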
HNF4A DNA FP – change in binding of human HNF4A to DNA, primary screen, biochemical, fluorescence polarization, FITC-DNA; Hepatocyte nuclear factor 4-alpha (Homo sapiens), P41235; 1 h; activity change, % at 10 µM; actives 0.3% (n = 360,000); AID 1224865, 2016; in the data active means activity change above about 30%, passing the limit was not always enough;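 further: controls were the assay level and a saturating level of protein; the project sought stronger binding though the title names inhibitors; some compounds called inactive have numbers as strong as hits; positive values seem to mean higher polarization but the record does not say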
Ecoli rRNA inh OD600 – second read-out of Ecoli rRNA inh, no call of its own (marks repeat the call); OD600 change, %; measured here: OD600 growth;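 optical density of the mix in the first replicate; 0 = DMSO median and -100 = no signal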
Ecoli rRNA inh RFP – also measured in Ecoli rRNA inh; calls as there; RFP signal change, %; measured here: RFP humanized mutant strains;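 first replicate; 0 = DMSO median and -100 = no signal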
Numbers without * were called inactive; i = inactive; u = inconclusive; x = no result given; + = active, no number. Some of the compounds tested (hit frequency here may not be typical).

#	SMILES	Vif TR-FRET	AF4-AF9 inh	Ecoli rRNA inh	Ecoli rRNA inh OD600	Ecoli rRNA inh RFP
1	O=C(c1ccccc1OC(F)F)N1CCN(S(=O)(=O)c2ccc3c(c2)OCCCO3)CC1	-4%	3.7	-5	-11	3.5
2	CC1CCN(C(=O)CSc2nnc(CSc3ncccn3)n2C)CC1	1%	x	x	x	x
3	Cc1ccccc1C(=O)NNC(=O)C(=O)N1CCCCC1	10%	1.0	5	17	-1.5
4	Cc1ccc(C)c(CN2CCCN(C(=O)Cn3ncc4c3-c3ccccc3OC4)C2)c1	3%	-0.3	-13	-19	1.8
5	CC(C)(C)c1ccc(C(=O)NCc2nnc(SCC(=O)NC3CCCC3)o2)cc1	u	-3.3	-6	-19	1.9
6	O=C(c1ccc2c(=O)n(-c3ccccc3)c(=O)[nH]c2c1)N1CCN(c2ccc(F)cc2)CC1	-2%	x	x	x	x
7	Cc1ccc(NC(=O)Nc2c(Cl)cccc2Cl)cn1	-4%	-2.6	0	6	-2.0
8	COc1ccc(Cc2c(C3CCCCC3)nc3ccc(Br)cn23)c(C)c1	x	3.6	4	4	7.4
9	O=C(C[C@@H]1CC[C@@H](NS(=O)(=O)c2ccccc2)[C@@H](CO)O1)NCc1ccncn1	x	1.6	1	-1	-0.1
10	CN(C)C(CNc1ncnc2sc3c(c12)CCCC3)c1ccco1 (configuration not stated)	u	5.4	-17	-19	-2.8

#	FGF22 binding	ALR inh	Ecoli growth	HNF4A DNA FP
1	i	-2	0.65	1.0
2	x	-10	0.67	-3.8
3	i	x	0.67	-4.8
4	i	-21	0.72	3.2
5	i	3	0.63	1.7
6	x	16	0.69	0.1
7	i	-7	x	2.4
8	i	x	x	3.4
9	i	x	x	x
10	x	x	0.69	2.3

The list goes on:
#	SMILES	Vif TR-FRET	AF4-AF9 inh	Ecoli rRNA inh	Ecoli rRNA inh OD600	Ecoli rRNA inh RFP
11	COc1ccc(-c2oc3c(c2C#CC2(O)CCCCC2)C(OC)CCC3)cc1 (configuration not stated)	x	-4.3	-4	-4	3.0
12	CCOC(=O)C(=CNc1ccc(N2CCOCC2)cc1)C(=O)OCC	11%	0.6	0	-18	-5.7
13	Nc1ccccc1-n1cccc1	-13%	1.7	-2	3	-1.1
14	O=C(C[C@@H]1CC[C@H]2[C@@H](COC[C@H](O)CN2C(=O)Nc2ccc(Cl)c(Cl)c2)O1)NCc1ccc(Cl)cc1	x	-1.9	-60	-80	-19
15	Cc1ccc(C)c(NC(=O)CN2C(=O)C3CC=CCC3C2=O)c1 (configuration not stated)	x	-1.1	3	-1	-1.6
16	Cc1cccc(N2C(=O)CC(N3CCN(c4ccccn4)CC3)C2=O)c1 (configuration not stated)	-6%	-1.4	-5	-3	-2.0
17	C=C1CCN(C(Cc2ccccc2)C(=O)OC)S(=O)(=O)c2ccc(F)cc21 (configuration not stated)	x	-22	-17	-31	-9.0
18	Cc1ccc(S(=O)(=O)N2CCCCC2)cc1NC(=O)CSc1nnc(C2CC2)n1N	x	-0.3	4	2	-0.4
19	CC1(C)CC(=O)/C(=C(/O)CCCN2C(=O)c3ccccc3C2=O)C(=NC(C)(C)C)C1	8%	-1.4	7	4	0.8
20	CCOC(=O)C1=CC[C@@H](c2cc(OC)c(OC)c(OC)c2)N(S(=O)(=O)c2ccc(C)cc2)[C@H]1C(=O)OCC	x	-2.1	2	6	-0.5

#	FGF22 binding	ALR inh	Ecoli growth	HNF4A DNA FP
11	i	x	x	0.2
12	i	2	0.68	0.0
13	i	-22	0.69	-4.0
14	i	x	x	x
15	i	x	x	-0.4
16	i	-8	0.67	1.5
17	i	-18	0.68	-0.9
18	i	-3	0.73	7.4
19	i	-4	x	-1.4
20	i	-1	x	1.2

The list goes on.
#	SMILES	Vif TR-FRET	AF4-AF9 inh	Ecoli rRNA inh	Ecoli rRNA inh OD600	Ecoli rRNA inh RFP
21	CCCCn1c(N)c(N(CC(C)C)C(=O)c2cc(Br)c(Br)s2)c(=O)[nH]c1=O	x	3.0	-1	-12	-3.2
22	CC1(C)Cc2cccc(OC(=O)NCCc3ccc(F)cc3)c2O1	x	-1.6	-10	-10	-5.3
23	COc1ccc(C2C(=O)N(C3CCCCC3)CC(=O)N2CC2COc3ccccc3O2)cc1 (configuration not stated)	0%	x	x	x	x
24	CCOC(=O)c1nn(C)c(C)c1Cl	-2%	-2.0	14	19	6.2
25	COc1ccccc1-c1nc(SCC(=O)NCc2ccco2)c2c(=O)n(C)c(=O)n(C)c2n1	x	-0.9	11	7	1.2
26	CCc1nn(CC(=O)N2CCN(Cc3ccc4c(c3)OCO4)CC2)c(=O)c2cc3occc3n12	u	x	x	x	x
27	CN(C(=O)CSc1ccccc1C(=O)O)C1CCCCC1	-2%	x	x	x	x
28	C[C@@H]1CN([C@@H](C)CO)C(=O)c2cc(NS(=O)(=O)c3cn(C)cn3)ccc2O[C@@H](C)CCCCO[C@H]1CN(C)CC1CC1	x	-9.7	6	6	1.9
29	COc1ccc(-n2nnnc2SCC(=O)NC(=O)Nc2ccc3c(c2)OCCO3)cc1	0%	x	x	x	x
30	Cc1cc(C)n(C(C)n2nc(C)cc2C)n1	-2%	x	x	x	x

#	FGF22 binding	ALR inh	Ecoli growth	HNF4A DNA FP
21	i	x	0.69	1.7
22	i	x	x	-11
23	x	-3	0.74	2.5
24	i	-1	0.68	1.7
25	i	-1	0.72	-1.2
26	x	x	0.72	1.7
27	x	-7	0.73	-2.4
28	i	x	x	x
29	x	-1	0.73	1.2
30	x	-8	0.72	3.6

Further compounds.
#	SMILES	Vif TR-FRET	AF4-AF9 inh	Ecoli rRNA inh	Ecoli rRNA inh OD600	Ecoli rRNA inh RFP
31	COCC(=O)N1CC2(CN(Cc3ccccc3)C2)c2c([nH]c3cc(OC)ccc23)[C@@H]1CO	x	1.4	-2	4	1.2
32	CCOC(=O)CSc1nc(-c2ccccc2)cc(C(F)(F)F)n1	27%	x	x	x	x
33	CO[C@H]1CN(C)C(=O)c2cc(NC(=O)c3cnccn3)ccc2OC[C@H](C)N(CC2CC2)C[C@@H]1C	x	-0.7	-1	1	-1.8
34	O=C(Nc1ccc(F)cc1)N[C@@H]1CC[C@H](CCn2cc(-c3ccc(F)cc3)nn2)O[C@@H]1CO	x	-16	-7	-10	1.6
35	C/C=C/c1cnc2c(c1)C(=O)N([C@@H](C)CO)C[C@H](C)[C@@H](CN(C)C(=O)Cc1ccccn1)O2	x	-1.9	3	7	-1.6
36	CC(=O)Nc1ccc(NC(=O)CSc2ncnn2-c2ccccc2)cc1	8%	x	x	x	x
37	O=C(COc1ccc([N+](=O)[O-])cc1)Nc1cccc(C(=O)Nc2ccccc2C(=O)O)c1	x	-3.2	-2	-10	5.9
38	CCN(CC)c1ccc(NC(=O)CSc2nc(C3CC3)nc3ccccc23)cc1C	x	0.5	6	8	-1.2
39	C[C@@H]1CN([C@H](C)CO)C(=O)c2cc(NS(C)(=O)=O)ccc2O[C@@H]1CN(C)C(=O)Nc1ccccc1	x	-12	3	5	-0.9
40	CCn1c(SCC(=O)Nc2nc3c(s2)CCCC3)nnc1-c1ccccc1	-2%	x	x	x	x

#	FGF22 binding	ALR inh	Ecoli growth	HNF4A DNA FP
31	i	x	x	x
32	x	x	0.8	1.4
33	i	x	x	x
34	i	x	x	x
35	i	x	x	x
36	x	-4	0.73	2.2
37	+	x	0.62	-0.4
38	i	x	0.65	-0.2
39	i	x	x	x
40	x	-7	0.71	-1.6

The list goes on.
#	SMILES	Vif TR-FRET	AF4-AF9 inh	Ecoli rRNA inh	Ecoli rRNA inh OD600	Ecoli rRNA inh RFP
41	O=C(CN1CCCC1)NN=C(c1ccccc1)c1ccccc1	6%	0.7	2	2	-1.3
42	CC[C@@]1(C(=O)OC)N[C@H](CN(C)C(=O)Nc2ccc(Cl)cc2)[C@@H]2C(=O)N(C)C(=O)[C@@H]21	0%	0.1	-11	-11	-0.6
43	CC(=O)Nc1ccc(CCNC(=O)c2ccc3ccccc3c2O)cc1	x	5.5	x	x	x
44	COc1ccc(CCn2c(=S)[nH]c3cc(C(=O)N4CCOCC4)ccc3c2=O)cc1OC	-1%	-2.8	-6	-6	0.0
45	O=C(OCC#CCSc1nnc(-c2ccncc2)o1)c1cccs1	3%	x	x	x	x
46	CC(=O)Nc1ccc(SCC(=O)N2CCN(S(=O)(=O)c3ccccc3)CC2)cc1	x	0.8	2	-2	-3.2
47	CCOC(=O)N1CCN(S(=O)(=O)Cc2ccccc2)CC1	6%	x	x	x	x

#	FGF22 binding	ALR inh	Ecoli growth	HNF4A DNA FP
41	i	6	0.71	1.6
42	i	x	0.71	2.2
43	i	x	x	4.9
44	i	29	0.68	0.6
45	x	11	0.66	-1.7
46	i	98*	0.58	-0.7
47	x	-3	0.77	0.7

Some of these compounds in order of their number in AF4-AF9 inh, rising.
| item | Compound | Vif TR-FRET | AF4-AF9 inh | Ecoli rRNA inh | Ecoli rRNA inh OD600 | Ecoli rRNA inh RFP | ALR inh |
| --- | --- | --- | --- | --- | --- | --- | --- |
| 44 | COc1ccc(CCn2c(=S)[nH]c3cc(C(=O)N4CCOCC4)ccc3c2=O)cc1OC | -1% | -2.8 | -6 | -6 | 0.0 | 29 |
| 42 | CC[C@@]1(C(=O)OC)N[C@H](CN(C)C(=O)Nc2ccc(Cl)cc2)[C@@H]2C(=O)N(C)C(=O)[C@@H]21 | 0% | 0.1 | -11 | -11 | -0.6 | x |
| 41 | O=C(CN1CCCC1)NN=C(c1ccccc1)c1ccccc1 | 6% | 0.7 | 2 | 2 | -1.3 | 6 |
| 46 | CC(=O)Nc1ccc(SCC(=O)N2CCN(S(=O)(=O)c3ccccc3)CC2)cc1 | x | 0.8 | 2 | -2 | -3.2 | 98* |
| 43 | CC(=O)Nc1ccc(CCNC(=O)c2ccc3ccccc3c2O)cc1 | x | 5.5 | x | x | x | x |

Three successive entries already listed, for reference:
#	SMILES	Vif TR-FRET	AF4-AF9 inh	Ecoli rRNA inh	Ecoli rRNA inh OD600	Ecoli rRNA inh RFP
43	CC(=O)Nc1ccc(CCNC(=O)c2ccc3ccccc3c2O)cc1	x	5.5	x	x	x
44	COc1ccc(CCn2c(=S)[nH]c3cc(C(=O)N4CCOCC4)ccc3c2=O)cc1OC	-1%	-2.8	-6	-6	0.0
45	O=C(OCC#CCSc1nnc(-c2ccncc2)o1)c1cccs1	3%	x	x	x	x

#	FGF22 binding	ALR inh	Ecoli growth	HNF4A DNA FP
43	i	x	x	4.9
44	i	29	0.68	0.6
45	x	11	0.66	-1.7
